Autofluor counter: counter-screen for toxin protease inhibitors: compound fluorescence; hit rate 3.1% among 360,000; fluorescence intensity (test concentration not listed); compound autofluorescence counterscreen, microsphere flow cytometry; hits give high values;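 active = at least 3 SD above the mean of all compounds, about 16000 in these data; inconclusive = too few beads counted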;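 also: 100 nL of 1 mM stock went into each well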
PrP 5UTR inh: inhibition of PrP 5' UTR reporter expression; cell-based PrP 5' UTR mRNA reporter, plate reader; inhibition, % (concentration not given with the values); hit rate 0.35% among 340,000; AID 488862, 2010;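 active = every replicate at 50% or more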;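 also: 0 = median of the neutral control wells; tested in H4 reporter cells; numbers are from one replicate; inactives centre near -14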
BJeLR viability: MLPCN primary cell-based screen for lethality selective to Ras in HRASV12 cells; BJeLR (HRASV12) viability, CellTiter-Glo ATP luminescence, 48 h; reference of the scale not given here; inhibition, % (concentration not given with the values); hit rate 0.17% among 300,000;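 active = replicate mean above 50%; inconclusive = above 50% but judged a plate artefact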;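 also: 50 nL library stock added to about 25 µL; numbers are from one replicate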
Sa ugtP lethal: growth inhibition of ugtP-null S. aureus, primary screen, RN4220 ugtP deletion, OD600; 16 h; some inactives read as strong as hits; growth inhibition, % (test concentration not listed); hit rate 0.54% among 330,000; AID 1259309, 2017;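 active = z-score under -3 and OD600 up to 0.15 on both plates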;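 also: plate controls were untreated wells for no effect and antibiotic for full effect; wells of about 80 µL received 100 nL stock; the first replicate is given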
Mtb hypoxia rep: PubChem AID 1159583 | M. tuberculosis hypoxia-regulated fluorescent reporter, fluorescence | fluorescence inhibition, % (concentration not given with the values) | hit rate 0.1% among 300,000;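 active = 35 to 45% if threefold the growth effect, above 45% if 1.5-fold the growth effect; inactive = the rest, general growth blockers included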;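 also: wells of about 50 µL received 100 nL stock; 0% = vehicle wells and 100% = reference inhibitor wells; whole bacteria with a GFP reporter of the hypoxia response; strong numbers were not always called active; many hits fall short of the cut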
RN4220 kill: growth inhibition of S. aureus RN4220, primary screen, OD600 | 16 h | inhibition, % (test concentration not listed) | hit rate 0.33% among 330,000 | AID 1259311, 2017;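 active = z-score of -3 or lower and OD600 up to 0.18 on both plates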;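 also: plate controls were untreated cells for no effect and reference antibiotic for full effect; stock transfer was 100 nL into about 80 µL; one replicate is shown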
Mtb hypoxia rep growth: also measured in Mtb hypoxia rep; calls as there; growth inhibition, %; measured here: M. tuberculosis growth (absorbance);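 0% = vehicle and 100% = reference antibiotic; read after six days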
* marks the source's active call; other numbers are inactive results; ? = inconclusive; · = no result given.

#	structure	Autofluor counter	PrP 5UTR inh	BJeLR viability	Sa ugtP lethal
1	COc1cc(C(=O)Nc2ccc3c(c2)OCO3)ccc1OCc1c(C)noc1C	4152	-26	1	-4
2	Cc1c([N+](=O)[O-])cc(S(=O)(=O)Nc2ccc(-c3ccc(N4CCCC4)nn3)cc2)cc1[N+](=O)[O-]	5450	-12	-7	3
3	C/C(=N\N=C1\NC(=O)C(CC(=O)NCc2ccccc2)S1)C(C)C (stereo unspecified)	2756	-29	-3	·
4	CCOc1c(OC(C)=O)ccc(/C=C2\N=C(SCC)SC2=O)c1[N+](=O)[O-]	4950	-14	-18	-2
5	NS(=O)(=O)c1ccc(CCNC(=O)/C=C/c2ccc(S(=O)(=O)N3CCOCC3)cc2)cc1	3634	-18	·	2
6	O=C(c1cc(-c2ccccc2O)on1)N1CCOCC1	6031	-26	-6	6
7	COC(=O)C1(C(C[N+](=O)[O-])c2ccco2)C(=O)NCC1c1ccccc1 (stereo unspecified)	4527	8	10	6
8	CC(=O)Nc1sc(C)c(C)c1C(=O)OCC(=O)Nc1ccc(S(N)(=O)=O)cc1	3043	-27	·	0

#	Mtb hypoxia rep	Mtb hypoxia rep growth	RN4220 kill
1	0	1	2.2
2	9	-6	2.1
3	·	·	·
4	·	·	2.3
5	1	1	4.3
6	8	0	1.4
7	5	3	3.2
8	6	-3	0.3

Further compounds follow.
#	structure	Autofluor counter	PrP 5UTR inh	BJeLR viability	Sa ugtP lethal
9	COCCN(CCOC)C(=O)c1ccc(CSc2nc3ccccc3s2)cc1	4185	1	-10	-6
10	Cc1ccc(NC(=O)CN(C)C(=O)c2cc3ccccc3o2)cc1	4095	-30	-4	3
11	Nc1nc(CSc2nnc(-c3cccc(F)c3)n2-c2ccccc2)nc(N2CCOCC2)n1	2129	-12	6	-4
12	Cc1ccc(C)c(CSCC(=O)NCc2cccs2)c1	5090	-17	-3	2
13	COc1cc(OC)c(/C=N/n2c(C)nnc2C)c(OC)c1	8382	-31	-11	·
14	Cn1c(=O)c2c(nc(NN=Cc3cccs3)n2Cc2ccccc2)n(C)c1=O	·	·	·	-3
15	O=C(CN1CCCCCC1)N1c2ccccc2C=Cc2ccccc21	19591*	-26	3	-9
16	O=c1[nH]c(CSc2ncc(C(F)(F)F)cc2Cl)nc2cc(C(F)(F)F)ccc12	4190	-23	-15	1

#	Mtb hypoxia rep	Mtb hypoxia rep growth	RN4220 kill
9	-12	-8	-2.4
10	2	-2	2.9
11	-4	1	2.3
12	-3	3	0.1
13	·	·	·
14	-1	-11	1.9
15	14	10	6.0
16	2	-1	1.0

Additional entries:
#	structure	Autofluor counter	PrP 5UTR inh	BJeLR viability	Sa ugtP lethal
17	O=C(Nc1ccccc1)Nc1snnc1C(=O)Nc1cccc(O)c1	5840	-29	-1	-14
18	Cc1ccc(S(=O)(=O)CCC(=O)NC2CCCC2)cc1	5609	3	-3	3
19	CCOC(=O)CSc1nc2c(sc(=S)n2-c2ccccc2OC)c(=O)n1-c1ccccc1OC	3212	·	-3	13
20	O=C1NC(=O)C2(CCCC2C(=O)O)N1 (stereo unspecified)	3701	-24	·	6
21	COc1ccc(NS(=O)(=O)c2ccc(NC(=O)c3ccc(CN4CCOCC4)cc3)cc2)cc1	2582	-13	6	1
22	COc1ccc(N2CCN(C(=O)C3CCN(S(=O)(=O)c4ccc(F)cc4)CC3)CC2)cc1	3432	-22	-1	3
23	CCCCN(CC)C(=O)c1cc2cc3ccc(Cl)cc3nc2o1	3487	-21	-4	-8
24	COc1ccc(CCC(C)NCCc2ccc(Cl)cc2Cl)cc1 (stereo unspecified)	3849	-11	5	-13

#	Mtb hypoxia rep	Mtb hypoxia rep growth	RN4220 kill
17	6	8	-0.6
18	0	3	2.7
19	6	8	-0.4
20	2	4	4.1
21	1	5	-3.6
22	-3	11	-1.3
23	5	4	-8.3
24	-5	3	-8.7

Later entries.
#	structure	Autofluor counter	PrP 5UTR inh	BJeLR viability	Sa ugtP lethal
25	Cc1cc(O)c(NC(=O)c2cc([N+](=O)[O-])ccc2Cl)cc1C	3279	-19	9	7
26	CN1C(=S)SC(/[N+]([O-])=C\c2ccccc2)C1(C)C (stereo unspecified)	3938	-29	-9	4
27	O=S(=O)(NCCSc1ccc(Cl)cc1)c1ccc(F)cc1	16419*	-5	-9	-8
28	O=C(Cn1c(=O)c2ccccc2n(CC(=O)N2CCCCC2)c1=O)N1CCCCC1	4414	-25	-3	1
29	CS(=O)(=O)N(CCc1ccccc1)CC(=O)N1CCc2ccccc2C1	3553	-1	-4	1
30	COc1ccc(N=C2SCC(c3ccc(C)cc3)=NN2CCO)cc1	4291	3	2	3
31	CCN(CC)S(=O)(=O)c1ccc(C)c(NC(=O)Cc2ccc(S(=O)(=O)N3CCOCC3)s2)c1	?	3	13	-8
32	O=C(Cn1c(C(F)(F)F)nc2ccccc21)Nc1ccccc1N1CCOCC1	2327	-15	2	-8

#	Mtb hypoxia rep	Mtb hypoxia rep growth	RN4220 kill
25	11	12	7.3
26	·	·	0.6
27	3	-2	-5.5
28	14	4	1.6
29	5	-8	1.0
30	4	3	1.7
31	-7	4	-3.6
32	·	·	-0.1

Next part:
#	structure	Autofluor counter	PrP 5UTR inh	BJeLR viability	Sa ugtP lethal
33	CC(=O)c1ccc(N2CCN(C(=O)c3cc(-c4ccncc4)nc4ccc(Cl)cc34)CC2)cc1	4600	-4	-11	31
34	Cc1cccc(/C=C/C(=O)c2cc(Br)ccc(=O)c2O)c1	3008	6	15	99*
35	O=C(CCN1CCCCC1)N/N=C/c1ccc(Br)cc1	2556	-9	-12	·
36	CCCCCCCCCCCCS[C@H]1CS(=O)(=O)C[C@@H]1O	4921	-5	-11	51
37	Cc1ccc(-n2cc(-c3ccccc3)c3c(N4CCOCC4)ncnc32)cc1	3029	-24	1	9
38	COc1ccc(NC(=O)CN2CCC(C(N)=O)(N3CCCCC3)CC2)c(OC)c1	4396	-12	-1	4
39	COc1ccccc1C(=O)C1CCCN(C(=O)c2ccccc2C(C)=O)C1 (stereo unspecified)	5353	-14	-2	3
40	Cc1cc(C(=O)C(C)Cl)c(C)n1Cc1ccco1 (stereo unspecified)	4741	-25	9	2

#	Mtb hypoxia rep	Mtb hypoxia rep growth	RN4220 kill
33	-2	-1	-3.1
34	·	·	99*
35	·	·	·
36	10	29	-9.4
37	2	1	-8.4
38	9	8	12
39	8	15	4.3
40	2	7	5.7

Next part:
#	structure	Autofluor counter	PrP 5UTR inh	BJeLR viability	Sa ugtP lethal
41	O=C(NCC1OCCc2ccccc21)c1cc(COc2c(F)cccc2F)on1 (stereo unspecified)	4142	-10	-6	15
42	Cc1nc(NC(=O)COC(=O)[C@@H](NC(=O)c2ccco2)C(C)C)c(Cl)cc1Cl	8804	-25	·	1
43	N=c1c(C(=O)NCCc2ccccc2)cc2c(=O)n3ccccc3nc2n1Cc1ccco1	3691	-15	-2	3
44	CCOC(=O)c1nn(-c2ccc(Cl)cc2)c2nnc(Cc3ccccc3)c(=O)n12	10117	-1	2	·
45	COc1ccccc1-c1nc(COc2ccc(Cl)cc2Cl)no1	3287	-71	3	-4
46	CC(OC(=O)c1cc2sccc2n1C)C(=O)NCc1cccs1 (stereo unspecified)	9520	-5	0	2
47	CCc1ccccc1C1=CC(=O)CC(c2ccc(OC)cc2)C1 (stereo unspecified)	·	·	·	13
48	CC(C)NC(=O)COC(=O)c1ccccc1CSC1=NCCS1	4124	-12	-1	5

#	Mtb hypoxia rep	Mtb hypoxia rep growth	RN4220 kill
41	-7	2	8.4
42	8	1	3.2
43	10	0	1.9
44	·	·	·
45	9	15	6.3
46	2	16	11
47	19	5	4.4
48	7	-10	1.3

Carrying on:
#	structure	Autofluor counter	PrP 5UTR inh	BJeLR viability	Sa ugtP lethal
49	O=C(Cn1cnc2cc([N+](=O)[O-])ccc2c1=O)Nc1ccc(N2CCOCC2)cc1	3621	-20	2	-5
50	CCn1cc([N+](=O)[O-])c(=O)c2cc(F)c(N3CCOCC3)cc21	3561	-15	-6	12
51	COc1ccccc1S(=O)Cc1ccc(C(=O)O)o1 (stereo unspecified)	11276	-2	-2	1
52	COc1cc(NC(=O)C/C(C)=N/NC(=O)Cc2ccc(Cl)cc2)c(OC)cc1Cl	2290	-18	-16	·
53	O=C(c1cccs1)N(C(=O)c1cccs1)c1ccc(Br)cn1	22230*	-57	11	6
54	Cc1ccc(NC(=O)c2cc3ccccc3o2)cc1Cl	4276	-77	9	1
55	Cc1cccc(NC(=S)NNC(=O)c2csc(C(C)C)c2)c1	9154	-74	1	8
56	CC(=O)Nc1cc2c3c(cccc3c1)-c1ccccc1-2	3481	-36	·	-17

#	Mtb hypoxia rep	Mtb hypoxia rep growth	RN4220 kill
49	-7	7	-6.7
50	8	5	3.0
51	6	7	-1.2
52	·	·	·
53	2	1	-2.2
54	9	5	-0.7
55	7	15	-0.3
56	8	8	-8.0

(continued)
#	structure	Autofluor counter	PrP 5UTR inh	BJeLR viability	Sa ugtP lethal
57	O=C(CCN1C(=O)S/C(=C\c2ccccc2)C1=O)N1CCCCC1	3876	-28	-7	4
58	CC1(C)Cc2ccccc2-c2nnc(-c3cccnc3)n21	1928	-12	-7	4
59	O=S(=O)(c1ccccc1)c1nc(-c2ccc(F)cc2)oc1N1CCOCC1	6024	-20	14	8
60	COc1ccc(NC(=O)CN2CCN(c3c(C)cccc3C)CC2)cc1	3553	-5	1	12
61	Nc1cccc(-n2nncc2-c2ccccc2)c1	8388	-13	-5	-1
62	COc1ccc(Cn2nnnc2C(C(C)C)N2CCc3ccccc32)cc1 (stereo unspecified)	6760	-19	2	2
63	CCOc1ccc(NC(=O)Nc2cccc(C)n2)cc1	3215	-35	-3	2
64	CCC(C)C1CNCCN1CCCc1cc(OC)c(OC)c(OC)c1 (stereo unspecified)	·	·	·	2

#	Mtb hypoxia rep	Mtb hypoxia rep growth	RN4220 kill
57	0	0	4.6
58	0	9	8.3
59	7	-4	-3.1
60	16	9	8.0
61	12	-1	0.6
62	16	2	13
63	3	11	2.1
64	6	-3	5.1

(listing goes on)
#	structure	Autofluor counter	PrP 5UTR inh	BJeLR viability	Sa ugtP lethal
65	Cc1ccc(NC(=O)CCc2c(C)nn(-c3ccc(N4CCOCC4)nn3)c2C)cc1C	4956	-15	6	5
66	NC(=O)C1=NOC(CNc2ncc(C(F)(F)F)cc2Cl)C1 (stereo unspecified)	2483	22	17	4
67	CCOc1ccc(S(=O)(=O)NCC(=O)OCc2nnc(-c3ccccc3)o2)cc1	3664	-27	·	9
68	O=C(C1CCCCC1)N1CCN=C1SCc1cccnc1	5674	-13	1	-6
69	O=C(Cc1ccccc1)NCC(=O)OCC(=O)c1cccs1	9079	-24	1	1
70	O=C(/C=C/c1ccccc1)NC(=S)Nc1ccccc1	2818	-7	1	64
71	C/C(=N\O)C(=O)NCCN(C)C	2521	-13	-14	·
72	CCN(CC)CCNC(=O)C(Cl)=C1C(Cl)=C(Cl)C(Cl)=C1Cl	3868	-22	·	0

#	Mtb hypoxia rep	Mtb hypoxia rep growth	RN4220 kill
65	6	17	-0.9
66	8	15	4.8
67	6	4	2.9
68	·	·	2.4
69	-3	0	-0.4
70	1	8	-0.7
71	·	·	·
72	9	11	3.9

Next section.
#	structure	Autofluor counter	PrP 5UTR inh	BJeLR viability	Sa ugtP lethal
73	COc1ccc(N(CN2C(=O)C3C4C=CC(C4)C3C2=O)C(=O)c2ccco2)cc1 (stereo unspecified)	4486	-21	·	9
74	CC1Cc2ccccc2N1Cc1cc(=O)c(OCC(=O)NCCc2ccccc2)co1 (stereo unspecified)	?	9	5	4
75	COc1cc(C(=O)OCC(=O)NC(=O)c2cccn2C)ccc1OC(F)F	3910	-4	-10	5
76	Cn1cc(CNCCN2CCCCC2=O)c(-c2cccc(Cl)c2)n1	2223	-24	-4	7

#	Mtb hypoxia rep	Mtb hypoxia rep growth	RN4220 kill
73	·	·	5.8
74	13	8	2.7
75	13	8	6.0
76	6	4	7.1
